Screens: PubChem BioAssay, Fisher Drug Discovery Resource Center
NPYLR7 ag: mosquito NPYLR7 agonism | HEK293T NPYLR7/Galpha15, GCaMP6s calcium fluorescence | activation, % at 10 µM | hit rate 0.15% among 270,000; in the data active means activation above about 40%;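 further: 0% = vehicle and 100% = reference agonist at the receptor; some compounds past the cut are filed as inactive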
NPYLR7 ag max-min: second read-out of NPYLR7 ag, no call of its own (marks repeat the call); activation, %; measured here: Max-Min RFU normalised activation; some inactives read as strong as hits;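 span of the calcium signal over five minutes; 0% = vehicle and 100% = native peptide agonist; compound fluorescence can raise it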
An asterisk follows results filed as active; & = joins results of further samples.

molecule	NPYLR7 ag	NPYLR7 ag max-min
CSc1ccc(/C=C2N=C(/C=C\c3cccc([N+](=O)[O-])c3)OC/2=O)cc1	1	3
Cc1cccc(OCC(=O)N2CCOC(COc3ccc(F)cc3)C2)c1C (centres undefined)	21	22
O=C(NC1CCCCC1)c1cc(-c2ccco2)on1	3	3
Cn1nc(C(=O)Nc2ccccc2C(N)=O)ccc1=O	1	-1
COc1ccc(-c2cc(N)ccn2)c(OC)c1OC	14	9
CCN(CC)CCN1C(=O)C(=O)C(=C(O)c2ccc(OC(C)C)cc2)C1c1cccnc1 (centres undefined)	7	6
COc1ccc(NS(=O)(=O)c2cn(C)c(=O)n(C)c2=O)cc1	-1	-1
CN(C)CCCN1C(=O)C(=O)C(=C(O)c2ccc(F)cc2)C1c1ccc([N+](=O)[O-])cc1 (centres undefined)	1	0
CC1CN(Cc2ccccc2)CCCN1c1cnn(C)c(=O)c1Cl (centres undefined)	4	6
S=c1[nH]nc(C2C3CCCCC32)n1-c1ccccc1Br (centres undefined)	-7	-11
COCCS(=O)(=O)NC(Cc1ccccc1)c1ccccc1 (centres undefined)	5	10
Cc1oc(=O)c2ccccc2c1C(=O)O	-4	4
O=C(CSc1nc(=O)n(CCCO)c2c1CCC2)NC1CCCCC1	-3	-9
CCONC(=O)c1csc(CSc2nnc(-c3ccco3)n2-c2ccc(Cl)cc2)n1	-1	8
Cc1nc2ccc(C(=O)N3CCC4(CCc5ccccc54)CC3)cc2nc1C	10	9
Cc1ccc(N2CC(O)(c3cccs3)[N+]3=C2CCCC3)cc1 (centres undefined)	-5	-7
CCOC(=O)c1c(C)n(C)c2ccc(O)cc12	-7	-10
Fc1ccc(-c2nnn(Cc3ccccc3Br)n2)cc1	4	2
CC(C)CNC(=O)CSc1n[nH]c(/C=C/c2ccc(F)cc2)n1	1	0
COc1cccc(CNc2nnnn2-c2ccccc2)c1OC	7	4

Complete entries, looked up by structure.
`Cc1nc2ccc(C(=O)N3CCC4(CCc5ccccc54)CC3)cc2nc1C` across the screens: NPYLR7 ag: 10; NPYLR7 ag max-min: 9
`COc1cccc(CNc2nnnn2-c2ccccc2)c1OC` across the screens: NPYLR7 ag: 7; NPYLR7 ag max-min: 4

Next compounds
molecule	NPYLR7 ag	NPYLR7 ag max-min
Cc1cc(C)n(-c2nncn2/N=C\c2ccc(N(C)C)cc2)n1	-1	-1
Cc1cc2c(N=Nc3ccccc3)c(O)[nH]c2cc1Br	-5	-10
COc1cc2c(cc1CN1CCCCC1CN1CCOCC1)OCO2 (centres undefined)	19	3
Cc1nc(CN(C)Cc2cccc(C(=O)Nc3cccnc3)c2)cs1	5	4
CCOCCOc1nc(-c2ccccc2C)n(-c2ccc(NC(=O)C(CC)c3ccccc3)cc2)n1 (centres undefined)	-9	-11
N#Cc1ncn(CC(=O)Nc2ccc3c(c2)OC2(CCCC2)O3)n1	-3	-4
CSCCn1c(=NC(=O)c2cc(C)no2)sc2cc3c(cc21)OCO3	8	11
Cc1c(C(=O)OCc2nc(N)nc(N)n2)oc2c(Cl)cccc12	9	9
Fc1ccc(CN(Cc2ccncc2)Cc2c(Cl)cncc2Cl)cc1	1	0
O=C(Cc1ccsc1)N1CCC(n2c(-c3ccccc3)nc3ccc(F)cc32)CC1	6	18
CCOC(=O)C1CCN(C(=O)c2coc(CN(Cc3ccccc3)Cc3cc(C)ccc3C)n2)CC1	19	15
CC(NC(=O)C1(C#N)CCCCC1)c1cccc(-n2ccnc2)c1 (centres undefined)	-20	-21
O=C(c1ccc(-n2cncn2)cc1)N1CCN(S(=O)(=O)c2cccc(F)c2)CC1	7	1
CCc1nn2c(C)c(C)c(C)nc2c1C	19	9
O=C(CCNC(=O)C12CC3CC(CC(C3)C1)C2)NNC(=O)c1ccccn1	5	-1
CCC(NC(=O)c1ccccc1OC)c1c(C)nn(C)c1C (centres undefined)	12	8
Cc1ccc(C(=O)Nc2c(C(=O)N3CCN(Cc4ccccc4)CC3)cnn2-c2ccccc2)cc1	-10	-15
Cc1noc(C)c1S(=O)(=O)N(C)Cc1cc(F)cc2cccnc12	-2	-3
CC(=O)n1c2c(c3ccccc31)OC(=N)C(C#N)C2c1cccnc1 (centres undefined)	-5	-12
CC1CCCN(S(=O)(=O)N2CCOC3(CCCC3)C2)C1 (centres undefined)	0	-1
c1cncc(COC2CCCN(Cc3ccc(-c4ccn[nH]4)o3)C2)c1 (centres undefined)	4	4
O=C(C1=COCCO1)N(Cc1cccnc1)c1nc2ccc(F)cc2s1	-17	-8
Cc1ccc(-c2cc(NS(=O)(=O)c3ccc(C)cc3)n(C3CCS(=O)(=O)C3)n2)cc1 (centres undefined)	-1	-3
NC(=O)c1c(NC(=O)c2ccccc2N)sc2c1CCC2	4	0
C=CCNC(=O)C(NC(=O)c1cccc(OC)c1)C1CCN(C(=O)c2ccc(Cl)cc2)CC1 (centres undefined)	7	5
CC1CCC2(CC1)NC(=O)N(NC(=O)COC(=O)C1CCCCC1)C2=O (centres undefined)	-1	28
CN(Cc1cccc(Cn2cccn2)c1)Cc1nc(-c2cccnc2)no1	0	-11
COC(=O)C1CCN(C(c2ccc(OC)c(OC)c2)C2Sc3nc(C)nn3C2=O)CC1 (centres undefined)	5	0
Cc1cccc(-c2cccc(NC(=O)C3CCCN3C(=O)c3cnccn3)c2)c1 (centres undefined)	-2	-6
CN(C)CCNc1cc(C(F)(F)F)c(C#N)c2nc3ccccc3n12	9&1	5&-2
CCCCC(CC)C(=O)NS(=O)(=O)c1ccc(C#N)cc1 (centres undefined)	1	5
COc1ccccc1-c1noc2nc(Oc3cccnc3)ccc12	-4	-5
COc1cccc(-c2cc(C(=O)NCCCN3CCOCC3)n(-c3cc(C)ccc3C)n2)c1	21	17
NC(=O)c1c(SCC(=O)c2ccc(Cl)cc2)sc2c(O)cc(=O)[nH]c12	1	0
CCN(CC)Cc1nnc2sc(-c3cccc(Br)c3)nn12	10	3
CCc1cc(CN(C)Cc2ncc[nH]2)on1	2	0
O=Cc1cccc(NC(=O)c2ccc(Cl)cc2Cl)c1	-5	-5
CS(=O)(=O)NCCOc1ccc2nnc(-c3ccccc3)n2n1	8	6
COc1ccccc1CC(=O)N1CCC(n2cnc3ccc(F)cc32)CC1	5	2
O=C(N1CCCCC1)N1CCN(CC(O)c2ccc(F)cc2)CC1 (centres undefined)	-3	-3
Cc1cc(C)n(-c2cccc(CN3CCN(Cc4ccccc4C)C(CCO)C3)c2)n1 (centres undefined)	4	3
CO[C@H]1CN(C(=O)c2cccnc2SC)[C@H]2Cc3c(n(CC(N)=O)c4ccccc34)[C@@H]1C2	19	18
COC(=O)c1sc(N2C(=O)C(O)=C(C(=O)c3cccs3)C2c2cccc([N+](=O)[O-])c2)nc1C (centres undefined)	1	12
Cc1ccc(C)c(OCCOc2c(Cl)cc(Cl)cc2/C=N\n2cnnc2)c1	30	20
Cc1noc(C)c1S(=O)(=O)Nc1ccccc1N1CCCCC1	4	1
Cc1noc(C)c1CC(=O)OC(C(=O)N1CCc2sccc2C1)C(C)C (centres undefined)	-1	-2
CCCC(O)(CCC)c1ccc(CN(Cc2ccco2)Cc2cccc(OC)c2OC)o1	-9	-8
Cc1cc(NC(=O)CN(C)CCCN2c3ccccc3CCc3ccccc32)nn1-c1ccccc1	-5	-10
N#CCCN(CCC#N)Cn1nc(-c2cccs2)n(CC2CCCO2)c1=S (centres undefined)	0	0
Cc1cc(C)cc(NC(=O)CN2CCSC2=O)c1	2	-1

Next part:
molecule	NPYLR7 ag	NPYLR7 ag max-min
Cc1nc(Cc2nnc(SCCCn3c(=O)c4c(ncn4C)n(C)c3=O)o2)cs1	8	14
CCCC(=O)Nc1cccc(C(=O)NCc2cc(-c3ccccn3)no2)c1	15	0
COc1ccccc1OCC(=O)OCn1c(SC)nnc(C)c1=O	2	0
O=C1CC(c2ccccc2)CN1Cc1nc(C2CC2)nn1-c1ccccc1 (centres undefined)	16	2
O=C(c1cccc(F)c1)N(Cc1nccn1Cc1ccc(C(F)(F)F)cc1)CC1CC1	2	6
O=C1OC[C@H](Cc2ccccc2)N1CN1CCC2(CC1)OCCO2	4	2
COC(=O)c1ccc(Cn2nc(C)c3cnn(-c4ccc(C)cc4C)c3c2=O)o1	3	0
COC(=O)c1ccc(OC)c(-n2ccnc2C(C)C)c1	11	7
N#Cc1cccnc1N1CCN(S(=O)(=O)c2ccc(F)c(Cl)c2)CC1	-1	4
CC(C)c1ccc(/C=C2/SC(=S)N(C)C2=O)cc1	22	2

Ordered by formula weight (rising): 5 of the compounds above
molecule	NPYLR7 ag	NPYLR7 ag max-min
O=C1OC[C@H](Cc2ccccc2)N1CN1CCC2(CC1)OCCO2	4	2
CCCC(=O)Nc1cccc(C(=O)NCc2cc(-c3ccccn3)no2)c1	15	0
N#Cc1cccnc1N1CCN(S(=O)(=O)c2ccc(F)c(Cl)c2)CC1	-1	4
COC(=O)c1ccc(Cn2nc(C)c3cnn(-c4ccc(C)cc4C)c3c2=O)o1	3	0
O=C(c1cccc(F)c1)N(Cc1nccn1Cc1ccc(C(F)(F)F)cc1)CC1CC1	2	6

Going on with the list.
molecule	NPYLR7 ag	NPYLR7 ag max-min
O=C(NC1CC1)c1cc2n(n1)CCN(Cc1ccc(F)cc1)C2=O	15	20
CCCCc1nc(C(N)=O)c2[nH]c(=O)n(-c3ccc(C)c(C)c3)c2n1	14	8
CCOC(=O)C1=C(C)N(Cc2ccccc2)C(=O)NC1c1ccccc1F (centres undefined)	-2	-7
CCCCCCn1c(C)cn2c3c(=O)n(CC(N)=O)c(=O)n(C)c3nc12	7	13
CC(O)c1ccc(-c2ccc(CNCC3CCNCC3)o2)cc1 (centres undefined)	-8	-17
CCOc1ccc(C(C2Sc3nc(CC)nn3C2=O)N2CCN(CC)CC2)cc1 (centres undefined)	-2	-9
CCC(c1cccnc1)N(C)Cc1ccc(C(F)(F)F)nc1 (centres undefined)	12	8
Cn1c(NC(=O)c2ccccc2I)cc(=O)n(C)c1=O	23	26
COc1ccccc1CN1CCC(CN(CC(C)C)C(=O)/C=C/c2ccncc2)CC1	10	1
COCC1CCCN1C(=O)c1ccc(C(F)(F)F)nc1C (centres undefined)	3	2
C=CCn1cc(C(=O)N=c2sccn2C)c2ccccc21	5	1
FC(F)(F)C1CCCn2c(CNCc3cccs3)nnc21 (centres undefined)	16	16
CCOc1ccc(Cl)c(C(=O)NCCc2cc(F)cc(F)c2)n1	-3	-6
CCCOc1ccc(C(=O)N2CCC(c3ccc(F)cc3)CC2)cc1	-7	-15
Cc1ccc(F)c(N2C(=O)CSC2c2cccc(NC(=O)CCc3ccccc3)c2)c1 (centres undefined)	-6	-6
CC(=O)N1N=C(c2cccnc2)OC1C(=O)N[C@@H](Cc1ccccc1)C(N)=O (some centres undefined)	0	25
CC1c2cccn2CCN1S(=O)(=O)c1ccc(F)cc1 (centres undefined)	-4	-6
O=C(Nc1ccc2c(c1)CCC2)C1=CN2CCS(=O)(=O)N=C2C=C1	0	4
CC1(C)CC2(CC(C)(C)N1)OC(=O)N1CCc3ccccc3C12C (centres undefined)	-1	-4
CCNC(=O)CSc1ccc2c3c(cccc13)C(=O)c1ccccc1-2	37	34
O=C(NCc1cccnc1)c1cccc(OC2CCN(C(=O)C3=CCCC3)CC2)c1	-3	-7
CC(=O)Oc1c(-c2ccc(NC(=O)c3cccs3)cc2)c(-c2ccc3c(c2)OCO3)nn1-c1cc(C)ccc1C	4	10
Cc1c(C)n2c3c(=O)n(CCN4CCOCC4)c(=O)n(C)c3nc2n1CCc1ccccc1	7	6
CN(CCNC(=O)c1csc2c1CCCCC2)C1CCCCC1	3	5
CC1CCC(NC(=O)Nc2cc(N(C)C)ccc2C#N)CC1 (centres undefined)	3&-2	0&-4
COCCN(Cc1ccco1)Cc1ccc(C(O)(CC2CCC2)CC2CCC2)o1	-3	17
O=C(NCc1n[nH]c(=S)n1-c1ccccc1Cl)c1ccccc1	-1	-3
NS(=O)(=O)c1ccc(NN=Cc2ccc[nH]2)c([N+](=O)[O-])c1	-5	-6
CCn1c(SCC(N)=O)nnc1-c1ccc(C(C)(C)C)cc1	-1	-3
CC(c1ccon1)N(C)C(=O)c1scc2c1CCCC2 (centres undefined)	-7	21

Gathered by group, the entries above containing a nitro group on carbon.
molecule	NPYLR7 ag	NPYLR7 ag max-min
CSc1ccc(/C=C2N=C(/C=C\c3cccc([N+](=O)[O-])c3)OC/2=O)cc1	1	3
CN(C)CCCN1C(=O)C(=O)C(=C(O)c2ccc(F)cc2)C1c1ccc([N+](=O)[O-])cc1 (centres undefined)	1	0
COC(=O)c1sc(N2C(=O)C(O)=C(C(=O)c3cccs3)C2c2cccc([N+](=O)[O-])c2)nc1C (centres undefined)	1	12
NS(=O)(=O)c1ccc(NN=Cc2ccc[nH]2)c([N+](=O)[O-])c1	-5	-6

(list continues)
molecule	NPYLR7 ag	NPYLR7 ag max-min
Cc1ccc(=O)n(CC(=O)N2CCC(c3[nH]ncc3-c3ccccc3)CC2)n1	-2	-9
CCNC(=O)CN1CCN(c2cccc(Cl)c2C#N)CC1	5	1
CN(C)CCN(Cc1c(-c2ccccc2)noc1N1CCc2ccccc2C1)C(=O)Nc1cccc(Cl)c1	13	11
CN1CC(=O)N2CCN(C(=O)c3ccc(C#CC(C)(C)O)cc3)CC2C1=O (centres undefined)	-3	-4
Cn1c(-c2nc(C(=O)N3CCCC(O)C3)cs2)cc2ccccc21 (centres undefined)	0	-3
COCCN1C(=O)CC(CC(=O)N(C)Cc2cn(C)nc2C)(c2ccccc2Cl)C1=O (centres undefined)	30	15
CCCn1c(=O)c(C(=O)Nc2ccc(F)cc2)nn(-c2ccccc2)c1=O	-4	0
COCc1cc(C)nc(OCC(=O)N/N=C\c2ccc(N(C)C)c(Br)c2)c1C#N	6	6
COc1ccc(Cl)cc1CN(C)C(=O)c1ccccc1C1CCNC1 (centres undefined)	-5	-6

Some of the compounds tested, so the mix of outcomes need not match the whole.
